Assay outcomes (PubChem)
Vaccinia Venus: vaccinia inhibition (Venus reporter) | 0.46% of 330,000 active | Vaccinia virus Venus reporter expression, fluorescence | Potency, µM (top dose mostly 36.5 µM), for the others: top-dose activity change, negative = inhibition, actives largely listed as inhibitors | AID 720580; active means well fitted inhibition curve with a large enough effect; inconclusive means small, poorly fitted or top-dose-only effect; inactive means no such curve, though single readings can be large or run the other way; tested in A549 cells; note: nearly all actives have a fitted effect of over 30% in size; inactives centre near -10
Vaccinia mCherry: vaccinia inhibition (mCherry reporter). Vaccinia virus mCherry reporter infection, fluorescence; about a quarter of the inactives have no number. Potency, µM (series often up to 36.5 µM), for the others: at the highest dose activity change, negative = inhibition, actives largely listed as inhibitors. 0.63% of 310,000 active. AID 720579; active = well fitted inhibition curve with a large enough effect; inconclusive = small, poorly fitted or top-dose-only effect; inactive = no such curve, though single readings can be large or run the other way; tested in A549 cells; note: nearly all actives have a fitted effect of over 35% in size; inactives centre near -10
* = called active by the depositor; i = inactive; ? = inconclusive; / = no result given; & = joins results of further samples; ! = not active in a repeat; [ ] = dose if it differs, or a comment. % is set by controls: 0 for no effect and ±100 for the full control effect; potency is the fitted concentration of half-maximal effect.

Sequence of screens – Vaccinia Venus | Vaccinia mCherry
CCC(=O)N1CCc2cc(Br)cc(S(=O)(=O)C3(C(=O)OC)CC3)c21
→ -17.0% | /
Cc1ccc(-n2cc3c(=O)n(C)c(=O)n(C)c3c2)cc1C
→ -27.8% | /
COc1ccc(CCC(=O)Nc2cnc3ccccc3c2)cc1
→ -12.1% | -0.6%
CCc1ccccc1NC(=O)CSc1nnc(-c2cc(OC)c(OC)c(OC)c2)o1
→ -13.7% | -18.6%
COc1ccccc1/C=C(/C(=O)OCC(N)=O)c1ccccc1
→ -21.9% | -11.4%
O=C(Nc1ccc(Cl)c(C(F)(F)F)c1)C1CCCN(S(=O)(=O)c2cccc3cccnc23)C1 (stereo not given)
→ ? | -29.4%
COc1ccc(/C=N/Nc2ccc(C(F)(F)F)cc2[N+](=O)[O-])cc1
→ -5.4% | i
CCc1cc(=O)oc2cc(C)cc(OC(C)C(=O)NCCN3CCOCC3)c12 (stereo not given)
→ -10.8% | i
CCN(CC)C(=O)Cn1c(=O)n(-c2ccc(OC)cc2OC)c(=O)c2c(C)c(C(=O)N(CC)CC)sc21
→ -9.4% | -8.9%
O=C(C1=C[C@H](C2CC2)C[C@H](OCc2ccc(CO)cc2)O1)N1CCN(Cc2ccccc2)CC1
→ -25.0% | -29.6%
Fc1ccc(CN(Cc2ccccc2)C(c2cccs2)c2nnnn2C2CCCCC2)cc1 (stereo not given)
→ -24.7% | -15.0%
O=S1(=O)CC(O)C(N=Nc2c(O)n(Cc3ccccc3)c3ccccc23)C1 (stereo not given)
→ -6.1% | ?
Cc1cccc(NS(=O)(=O)c2nnc(NC(=O)c3ccc(Cl)cc3)s2)c1
→ -14.4% | i
Fc1ccc(C2CC(c3ccco3)=Nc3ccccc3S2)cc1 (stereo not given)
→ 2.7% | ?
N#CC(=Nc1ccccc1)c1ccccc1
→ 4.4% | i
O=c1[nH]c(=S)[nH]nc1Cc1ccc(Cl)c(Cl)c1
→ -15.4% | i
CSc1ccc(OC2(C)CCN(Cc3ccc4c(c3)OCCO4)C2)cc1 (stereo not given)
→ -3.4% | -13.0%
O=C1N(C2CCCC2)C[C@@H]2C[C@@H](c3cccn3-c3nccs3)N3CCC[C@@]123
→ 13.0% | i
O=C(N/N=C/c1ccc([N+](=O)[O-])cc1)c1cnccn1
→ 4.4% | -0.3%
CC(=O)Nc1ccc(CN2CCN(CC(C)C)C(CCO)C2)cc1 (stereo not given)
→ -2.7% | -4.6%

Fetched by structure from the list above, four records:
Sequence of screens – Vaccinia Venus | Vaccinia mCherry
Cc1ccc(-n2cc3c(=O)n(C)c(=O)n(C)c3c2)cc1C
→ -27.8% | /
COc1ccc(/C=N/Nc2ccc(C(F)(F)F)cc2[N+](=O)[O-])cc1
→ -5.4% | i
O=C(Nc1ccc(Cl)c(C(F)(F)F)c1)C1CCCN(S(=O)(=O)c2cccc3cccnc23)C1 (stereo not given)
→ ? | -29.4%
Fc1ccc(C2CC(c3ccco3)=Nc3ccccc3S2)cc1 (stereo not given)
→ 2.7% | ?

The listing continues.
Sequence of screens – Vaccinia Venus | Vaccinia mCherry
CN(C)C(=O)Oc1ccc2c(=O)c(Oc3ccccc3Br)coc2c1
→ -8.2% | i
COc1ccc(NC(=O)N2CCC(NC(=O)c3ccco3)CC2)cc1
→ -11.4% | i
CC(C)CC(=O)NC(=S)Nc1sc2c(c1C(N)=O)CCC2
→ -25.8% | -24.0%
CSc1ccc(/C=C/C(=O)NC23CC4CC(CC(C4)C2)C3)cc1
→ -21.6% | i
CCCCC12CN3CCN(CC(C3)/C1=N\NC(=O)c1ccccc1N)C2
→ -11.1% | -16.7%
CN(C)c1ccc(CNC(=O)C2Cc3c(-c4cccc(C(N)=O)c4)ccnc3O2)cc1 (stereo not given)
→ -20.8% | -12.4%
c1ccc2c3n(nc2c1)CCCCO3
→ -20.9% | i
CC(=O)Nc1ccc(-n2c(C)ccc2-c2ccccc2)cc1
→ -10.9% | -5.0%
Cc1ccc(CNC(=O)c2ccc(CSCc3ccccc3Cl)o2)cc1
→ 4.7% | 8.9%
O=C(Nc1ccccc1)C1=C(O)CC(c2ccoc2)CC1=Nc1ccccc1 (stereo not given)
→ -10.5% | ?
CC1CN(CC(O)COc2ccc(C(C)C)cc2)CC(C)O1 (stereo not given)
→ -24.3% | -0.4%
CCOc1ccc(NC(=O)C2CCCN(S(=O)(=O)c3ccc(Br)s3)C2)cc1 (stereo not given)
→ -9.5% | -13.2%
CCc1ccc(OC)c(S(=O)(=O)Nc2ccc(Cc3ccncc3)cc2)c1
→ -18.1% | ?
COC(=O)/C(=C/c1cccc([N+](=O)[O-])c1)NC(=O)c1ccc(OC)cc1
→ -11.4% | -11.6%
CCOc1ccc2cc(-c3nnc(Nc4ccccc4F)s3)c(=O)oc2c1
→ -29.9% | ?
Cc1ccc(C(=O)C(C)Sc2nnc(N)s2)cc1 (stereo not given)
→ -10.3% | -20.7%
CN(C)C(=O)CCc1ccc2c3c([nH]c2c1)[C@]1(C)[C@@H](C(=O)N2CCCCC2)C[C@H](CC(=O)NCCC2=CCCCC2)C(=O)N1CC3
→ -25.8% | -3.9%
OCCNCc1cc(Br)ccc1OCc1ccc(F)cc1
→ -15.3% | i
CN1CCN(c2ccc(Cl)cc2NC(=O)c2ccc(S(=O)(=O)N(C)C)cc2)CC1
→ -16.8% | i
CCC(=O)N1CCC2(CC1)Oc1ccc(F)cc1C(=O)C21CC(c2ccc(Cl)cc2)=NO1 (stereo not given)
→ -10.6% | -2.3%
CC(=O)C1=C(C)N(Cc2ccccc2)C(=O)N[C@@H]1c1cccc(C(F)(F)F)c1
→ -14.9% | -6.0%
C=CCNC(=O)c1ccccc1NC(=O)COc1ccc(OC)cc1
→ 5.2% | 19.3%
Cc1ccc(N(Cc2ccc(C(=O)NCCSc3ccccn3)cc2)S(C)(=O)=O)cc1C
→ -27.0% | -19.9%
O=C1NC[C@H](CCCCN2CCN(CCc3ccccc3)C(=O)C2=O)N(CC2CCCCC2)C1=O
→ 2.6% | 0.4%
CN(C(=O)CSc1nc2ccccc2c(=O)n1C)C1CCS(=O)(=O)C1 (stereo not given)
→ 7.2% | -2.6%
CCOCc1c(C(=O)OCC(=O)/C(C#N)=C(\C)N)oc2ccccc12
→ -20.8% | i
C#CCN(Cc1ccccc1)S(=O)(=O)C=C
→ 1.58µM*! | ?
O=[N+]([O-])c1cccc(CN2[C@@H](Cc3ccccc3)COCCS2(=O)=O)c1
→ -18.5% | ?
COc1ccc(Cl)cc1C1=CC(=O)C[C@H](c2ccc(F)cc2)C1
→ -10.4% | i
COC(=O)c1ccc(NC(=O)C[n+]2ccccc2)cc1
→ -0.5% | i
CNC(=S)N1CCC(C(=O)c2ccc(Cl)cc2)CC1
→ -15.0% | -21.0%
Cc1ccc(CN2CCN(CC(=O)Nc3ccc(C)c(C)c3)S2(=O)=O)cc1
→ -12.4% | -8.2%
CCCn1c(O)c(N=NC(=O)CNC(=O)c2ccncc2)c2ccccc21
→ -6.8% | -15.4%
COc1cc(C(=O)N2CCN(c3ncnc4sc(C)c(C)c34)CC2)cc(OC)c1OC
→ ? | ?
Cc1c(Cc2ccccc2)sc(/N=C/c2c(O)ccc3ccccc23)c1C(N)=O
→ 72.9%[activator] | ?
CCOC(=O)c1oc2ccc(S(=O)(=O)n3nc(-c4ccccc4OC)cc3N)cc2c1C
→ -17.5% | -5.7%
O=C(CCCSc1nnnn1-c1cccc2ccccc12)c1ccc(F)cc1
→ -29.2% | ?
CC(=O)Oc1ccc(-c2cccc(C(=O)N(C)c3ccc(O)cc3)c2)cc1
→ -8.0% | -14.1%
CC(=O)c1c(O)cc(O)c(C(C)=O)c1O
→ -5.3% | -14.3%
O=C(CN1CCC(C(=O)c2ccc(F)cc2)CC1)Nc1ccc(F)cc1
→ ? | ?
Cc1cc(C)c2c(CC(=O)N(CCC#N)Cc3cccnc3)coc2c1
→ -13.9% | -11.5%
O=C(Cc1ccc(N2CCNC2=O)cc1)N1CCCC(Nc2ccc(F)c(F)c2)C1 (stereo not given)
→ -8.6% | ?
Cc1cc(-c2n[nH]c(=S)n2/N=C/c2ccc(C)s2)n[nH]1
→ -0.7% | -12.2%
CC1CCN(C(=O)c2ccc(NC(=O)c3ccccc3)cc2)CC1
→ 2.6% | -12.5%
COC(=O)C1CN(C#N)N(c2ccc(Cl)cc2)C12c1ccccc1-c1ccccc12 (stereo not given)
→ ? | ?
COc1cccc(NC(=O)CCS(=O)(=O)c2ccc3c(c2)oc(=O)n3C)c1
→ -19.7%&-0.5% | -12.9%&0.4%
COc1ccc(OC)c(NC(=O)c2ccc3c(Cl)c4c(nc3c2)CCCC4)c1
→ -4.9% | -7.5%
CCc1ccc2nc3nc(C)cc(C)c3c(N)c2c1
→ ? | ?
N=C1/C(=C\c2ccc(-c3ccc(C(=O)O)cc3)o2)C(=O)N=C2SC=C(c3ccccc3)N12
→ 2.4%[7.34 µM] | 1.8%[7.34 µM]
CCOc1ccc2nc(NCCO)[nH]c2c1
→ 9.3% | /
COCCn1c(=NC(=O)C(C)(C)C)sc2cc([N+](=O)[O-])ccc21
→ -8.7% | -2.2%
Cc1ccnc(NC(=O)CNC(=O)c2sc3ccccc3c2Cl)c1
→ 0.2% | -7.5%
O=C(Nc1ccccc1C(=O)N1CCCCC1)c1cc(F)c(F)cc1Cl
→ -12.0% | i
C[C@H](O)[C@@H]1CN2CCc3c([nH]c4ccccc34)[C@@H]2C[C@@H]1N(C)C(=O)Nc1ccc(F)cc1
→ ? | ?
O=C(NCCc1ccco1)C(=O)NCC1OCCCN1S(=O)(=O)c1cc(F)ccc1F (stereo not given)
→ -4.0% | -18.6%
COc1ccc(OC(C)C(=O)N(C)Cc2nc(-c3ccc(OC)cc3)no2)cc1 (stereo not given)
→ -5.9% | -19.4%
COc1ccc(NC(=O)Cn2c(=O)n(-c3ccc(OC)c(OC)c3)c(=O)c3ccccc32)cc1
→ -0.1% | 2.6%
CC(=O)N(CC1CCCO1)c1nnc(-c2ccccn2)s1 (stereo not given)
→ -6.1% | -12.9%
CC(C)CCN1NC2(CCC(C)CC2)NC1=S (stereo not given)
→ -15.8% | -10.9%
Cc1ccc(CNC(=O)c2nnn(Cc3ccc(F)cc3)c2N)cc1
→ 14.9% | -8.1%

(list continues)
Sequence of screens – Vaccinia Venus | Vaccinia mCherry
CCc1ccc(-c2nc(CS(=O)CC(=O)NC3CC3)c(C)o2)cc1 (stereo not given)
→ 1.4%[7.34 µM] | 1.2%[7.34 µM]
CNC(=O)C1C2C=CC3(O2)C1C(=O)N(CCOC)C3C(=O)NCc1ccc(OC)cc1 (stereo not given)
→ -8.5% | i
CCC(C)Sc1nnc(NC(=O)C2CCN(C(=O)c3ccco3)CC2)s1 (stereo not given)
→ -20.6% | -10.3%
COc1ccc(OC)c(S(=O)(=O)Nc2cc3c4c(c2)C(C)C(=O)N4CCC3)c1 (stereo not given)
→ -20.0% | -1.3%
CCOC(=O)c1ccc(-c2ccc(N3C(c4cccc(OC)c4)=Cc4ccc(F)cc4C3CC(C)=O)cc2)cc1F (stereo not given)
→ -8.3% | -1.8%
Cc1ccc2nc(Cl)c(C3CC(c4cccs4)=NN3C(=O)CCC(=O)O)cc2c1 (stereo not given)
→ -4.6% | i
CCc1cccc2c(C(=O)CN3C(=O)C(=O)N(C4CCCC4)C3=O)c[nH]c12
→ -8.4% | 6.0%
C=CCOc1ccc(/C=N/NC(=O)CC(=O)NC2CCCCC2)cc1
→ -1.1% | i
CCCc1n(CC(O)COC2CCCCC2)c2ccccc2[n+]1C (stereo not given)
→ 0.3% | -11.4%
COc1ccc(C2NC(=O)c3c(sc4c3CCN(C)C4)N2)cc1O (stereo not given)
→ -2.6% | -9.4%
Cc1ccc(Cc2c(-c3ccco3)nc3ccc(C)cn23)cc1
→ -9.6% | 10.7%
CCCCSc1nnc(-c2cc3c(C(F)(F)F)nn(C)c3s2)n1C
→ ? | -20.1%[1.46 µM]
CC(C)(C)C(=O)N1CCC(O)(CS(=O)(=O)Cc2ccccc2)CC1
→ -0.5% | -1.6%
Cc1nc(-c2cccc(F)c2)sc1CCNC(=O)c1ccc(F)c(F)c1
→ -0.3% | 0.6%
CC(/C=N\NC(=O)c1ccc(C)nc1)=C\c1ccccc1
→ -8.4% | i
c1csc(C2=Nn3c(nnc3-c3ccncc3)SC2)c1
→ -19.0% | /
O=C(CNC(=S)NC(=O)c1ccc(Cl)cc1)c1ccccc1
→ -15.8% | -1.7%
Cc1ccc2[nH]c3c(=O)n(CC(=O)NCCCN4CCN(c5ccc(F)cc5)CC4)ncc3c2c1
→ -6.1%&0.5% | -14.0%&-3.0%
Cc1csc(=Nc2ccccc2)n1C
→ -13.4% | i
CC(=O)NC(c1ccccc1)c1nc(-c2cccc(C#N)c2)cs1 (stereo not given)
→ 4.9% | 42.8%[activator]
COc1cc2oc(=O)ccc2cc1[C@H](O)[C@@H](O)C(C)(C)O
→ -11.1% | i
CC(C)(C)n1cnc(C(N)=O)c1N
→ -22.6% | -12.6%
CCCCOC(=O)c1ccc(NC(=S)NC(=O)c2c(Cl)cnn2C)cc1
→ -5.8% | i
COc1cccc(N2CCN(C(=O)c3ccc(CSc4nc5ccncc5[nH]4)cc3)CC2)c1
→ -14.2% | -19.8%
CN=C(C)c1c(O)c2ccccc2oc1=O
→ -11.4% | -6.0%
O=C(NCCc1ccc(Cl)cc1)c1cnccn1
→ 7.0% | i
CCc1cccc(NC(=O)COC(=O)c2cn(CC)c3nc(C)ccc3c2=O)c1
→ -8.2% | -10.6%
O=C(NCC1CCCO1)C1CCN(C(=O)c2ccc(Cl)cc2)CC1 (stereo not given)
→ -5.2% | 3.6%
